High-throughput results from PubChem.
VACV Venus inh = inhibitors of vaccinia virus (Venus reporter). 330,000 compounds, 0.46% hits. Vaccinia virus Venus reporter expression, fluorescence. Potency, µM (top dose mostly 36.5 µM), inactives show at the top dose activity change, negative = inhibition, most hits filed as inhibitors; active means well fitted inhibition curve with a large enough effect; inconclusive means small, poorly fitted or top-dose-only effect; inactive means no such curve, though single readings can be large or run the other way; tested in A549 cells; also: nearly all actives have a fitted effect of over 30% in size; inactives centre near -10
VACV mCherry inh = vaccinia inhibition (mCherry reporter); Vaccinia virus mCherry reporter infection, fluorescence; about a quarter of the inactives have no number; Potency, µM (series often up to 36.5 µM), for inactives: at the highest dose activity change, negative = inhibition, actives largely listed as inhibitors; 310,000 compounds, 0.63% hits; active = well fitted inhibition curve with a large enough effect; inconclusive = small, poorly fitted or top-dose-only effect; inactive = no such curve, though single readings can be large or run the other way; tested in A549 cells; also: nearly all actives have a fitted effect of over 35% in size; inactives centre near -10
An asterisk follows results filed as active; i = inactive; ? = inconclusive; . = no result given; & = joins results of further samples; [ ] = remark or other dose. % is scaled to controls: 0 for no effect and ±100 for the full control effect; potency is read from the fitted curve at half-maximal effect. Compounds were not picked by outcome; 0.82% or so of the library scored in one or more.

Start of the data: the first 13 compounds (preview)
SMILES	VACV Venus inh	VACV mCherry inh
COc1ccc(C)cc1NC(=O)CSc1nc(=O)n(Cc2cccnc2)c2c1CCC2	-19%	-29%
Cc1cccc(N(C(=O)Cn2nnc3ccccc32)C(C(=O)NCc2ccco2)c2ccncc2)c1C (configuration not stated)	3%	.
COCCCN(C(=S)NC(=O)c1ccc(C(C)(C)C)cc1)c1c(N)n(Cc2ccccc2)c(=O)[nH]c1=O	-11%	-15%
Clc1ccccc1C1SCC2Nc3ccccc3CN21 (configuration not stated)	-14%	-20%
O=C1NC(c2ccco2)Nc2sc3c(c21)CCN(Cc1ccccc1)C3 (configuration not stated)	5%	i
CCOC(=O)c1cc(S(=O)(=O)NCCc2ccc(OC)c(OC)c2)cn1C	-15%	i
O=C(CCCOc1ccc(Cl)cc1Cl)NCc1ccncc1	-16%	i
C[C@@H]1CN([C@@H](C)CO)C(=O)c2cccc(NC(=O)Nc3ccc(F)cc3)c2O[C@@H]1CN(C)Cc1ccc(Oc2ccccc2)cc1	?	-11%
Nc1nc(-c2ccc(F)cc2)cc(C(F)(F)F)n1	-23%	-10%
COc1ccc(NC(=O)c2cc3n(n2)C(C(F)(F)F)CC(c2ccc4c(c2)OCO4)N3)cc1OC (configuration not stated)	-23%	-25%
Cc1ccc(C(=O)Nc2cccc(C(=O)O)c2)cc1S(=O)(=O)N1CCCC1	-8%	-13%
COc1cc(/C=N/NC(=O)C2CC(=O)N(c3ccc(C)cc3)C2)cc(OC)c1OC (configuration not stated)	3%	44%[activator]
N#Cc1ccc(N2Cc3ccccc3/C2=N/C(=O)Nc2ccc(Cl)cc2)cc1	0%	-14%

Main list (from the top)
SMILES	VACV Venus inh	VACV mCherry inh
COc1ccc(C)cc1NC(=O)CSc1nc(=O)n(Cc2cccnc2)c2c1CCC2	-19%	-29%
Cc1cccc(N(C(=O)Cn2nnc3ccccc32)C(C(=O)NCc2ccco2)c2ccncc2)c1C (configuration not stated)	3%	.
COCCCN(C(=S)NC(=O)c1ccc(C(C)(C)C)cc1)c1c(N)n(Cc2ccccc2)c(=O)[nH]c1=O	-11%	-15%
Clc1ccccc1C1SCC2Nc3ccccc3CN21 (configuration not stated)	-14%	-20%
O=C1NC(c2ccco2)Nc2sc3c(c21)CCN(Cc1ccccc1)C3 (configuration not stated)	5%	i
CCOC(=O)c1cc(S(=O)(=O)NCCc2ccc(OC)c(OC)c2)cn1C	-15%	i
O=C(CCCOc1ccc(Cl)cc1Cl)NCc1ccncc1	-16%	i
C[C@@H]1CN([C@@H](C)CO)C(=O)c2cccc(NC(=O)Nc3ccc(F)cc3)c2O[C@@H]1CN(C)Cc1ccc(Oc2ccccc2)cc1	?	-11%
Nc1nc(-c2ccc(F)cc2)cc(C(F)(F)F)n1	-23%	-10%
COc1ccc(NC(=O)c2cc3n(n2)C(C(F)(F)F)CC(c2ccc4c(c2)OCO4)N3)cc1OC (configuration not stated)	-23%	-25%
Cc1ccc(C(=O)Nc2cccc(C(=O)O)c2)cc1S(=O)(=O)N1CCCC1	-8%	-13%
COc1cc(/C=N/NC(=O)C2CC(=O)N(c3ccc(C)cc3)C2)cc(OC)c1OC (configuration not stated)	3%	44%[activator]
N#Cc1ccc(N2Cc3ccccc3/C2=N/C(=O)Nc2ccc(Cl)cc2)cc1	0%	-14%
CCCC(=O)N1CCC1(C)C(=O)NS(=O)(=O)c1ccc(OC)cc1 (configuration not stated)	-2%	-4%
COCCn1c(SCC(=O)NC2CCCCC2)nnc1-c1ccncc1	-7%	-13%
Cc1noc(C)c1CSCC(=O)N1CCN(c2ccc([N+](=O)[O-])cc2)CC1	?	.
CC1CCCCN1S(=O)(=O)c1ccc(C(=O)Nc2ccccc2-c2nc3ccccc3s2)cc1 (configuration not stated)	-2%	18%
CN(CC(=O)NCc1ccc(Cl)cc1)S(=O)(=O)c1cccc2cccnc12	-15%	15%
CCc1ccc(NC(=O)CN2C(=O)CSC2=O)cc1	-20%	.
CCOC(=O)C1CCN(C(=O)C2CCN(C(=O)c3ccc([N+](=O)[O-])cc3)CC2)CC1	-11%	0%
Nc1ccc(Nc2ccncc2[N+](=O)[O-])cc1	-15%	-3%
COC(=O)Cc1c(O)ccn(CCc2ccc(OC)c(OC)c2)c1=O	1%	-8%
COc1ccc(N=C2SC(CC(=O)Nc3ccccc3)C(=O)N2Cc2ccccn2)cc1 (configuration not stated)	-16%	i
CN(C(=O)CSc1nnc(-c2ccncc2)n1C)C1CCS(=O)(=O)C1 (configuration not stated)	-17%	.
COc1ccc(/C=N/NC(=O)c2cnccn2)cc1O	-11%	i
SMILES	VACV Venus inh	VACV mCherry inh
CC(C)(C)OC(=O)N1CCC(CC2CC(c3cccc(Br)c3)=NO2)(C(=O)NCC2CCCCC2)CC1 (configuration not stated)	?	i
Cc1ccc(CSc2ccc(S(=O)(=O)N3CCCCC3)cn2)cc1	-5%	-9%
NS(=O)(=O)c1ccc(NC(=O)CSc2ccc3ccccc3n2)cc1	6%	13%
CCCCCCCCCCCCCCCCCCNc1ccn(C2OC(COP(=O)(O)OCC3OC(n4cc(F)c(=O)[nH]c4=O)CC3O)C(O)C2O)c(=O)n1 (configuration not stated)	?	0.32µM*
COc1ccc(C)cc1NC(=O)c1nnn(Cc2cccc(Br)c2)c1N	-17%	-4%
CCC(=O)NC(=S)Nc1ccc(N2CCOCC2)cc1	-14%	-19%
C[C@]1(O)CCC2C3CC[C@H]4C[C@@H](OC(=O)[C@@H](N)CCCCN)CC[C@]4(C)C3CC[C@@]21C (some centres not stated)	-23%	i
CCOC(=O)c1c(C)n(-c2ccccc2)c2ccc(OCCN(C)C)cc12	-29%	-7%
COc1ccccc1C#Cc1ccc2c(=O)c3ccccc3n(C)c2c1	?	-4%
COCCN(C(=O)Cc1cccs1)C(C(=O)NCc1ccc(OC)cc1)c1ccc(OC)cc1 (configuration not stated)	0%	-10%
CC(C)c1nc(C(=O)N2CCCC(N3CCN(c4cccc(Cl)c4)CC3)C2)cs1 (configuration not stated)	-14%	-21%
COc1ccccc1CNC(=O)c1ccc2c(c1)sc1nc(-c3ccc(F)cc3)cn12	-14%	-15%
O=C(NCCCN1CCOCC1)c1onc(CSc2ccccc2)c1C(=O)NCCCN1CCOCC1	-11%	i
CN(Cc1ccccc1)C(=O)c1ccc(NC(=O)Cc2cccc(NC(=O)C3CCCN(C(=O)C4CCCCC4)C3)c2)cc1 (configuration not stated)	?	-20%
CCOc1ccc(NC(=O)COC(=O)Cn2cnc3ccccc32)cc1	-9%	-10%
Cc1ccc(C(=O)CSc2nnc3ccccn23)c(C)c1	0%	-2%
CCOC(=O)Cc1csc(SCC(=O)Nc2cc(C)ccc2OC)n1	-2%	0%
O=C(CS(=O)(=O)c1cn(CC(=O)N2CCOCC2)c2ccccc12)NCc1ccccc1	-9%	-15%
Cc1ccc(C(O)c2ncc(-c3ccc(Cl)cc3)[nH]2)c(C)c1 (configuration not stated)	-25%	0%
Fc1ccccc1-c1cc2cc3c(cc2cn1)OCO3	-11%	?
N#C/C(N=Nc1ccccc1O)=N\Nc1ccccc1O	?	?
COc1ccc(NC(=O)CSc2nnc(NC(=O)C3CCC3)s2)cc1	2%	37%[activator]
N#Cc1ccccc1S(=O)(=O)N1CCC(Oc2ccc(-n3cnnn3)cc2)CC1	-24%	-15%
Cc1ccc(N2C(=O)N3[C@H]4c5ccccc5OC[C@@H]4[C@@H](c4ccccc4)[C@@]3(C)C2=O)cc1	-10%	i
C=CCSc1nnc2c(n1)OC=Nc1ccccc1-2	-4%	i
SMILES	VACV Venus inh	VACV mCherry inh
COc1cccc(/C=C(/C(=O)OCC(=O)NC2CCCC(C)C2C)c2ccccc2)c1 (configuration not stated)	-20%	i
CCOc1ccc(S(=O)(=O)N2CCC(C(=O)NCc3ccco3)CC2)cc1	-14%	-3%
COc1c2c(c(OC)c3c1c(=O)c1ccccc1n3C)OCO2	-12%	35%[activator]
CCn1c(=O)cc(O)c2ccccc21	-8%	i
CCOC(=O)c1c(NC(=O)CN2CCN(C(=O)c3ccco3)CC2)sc(C)c1C	?	?
O=C(Nc1ccccc1Cl)c1cc2c(-c3ccccc3)nn(-c3ccccc3)c2s1	14%	3%
CCOc1ccc(C(=O)Nc2cccc(-c3ccc(N4CCOCC4)nn3)c2)cc1OCC	9%	-9%
Cc1ccccc1N(C(=O)c1snc(C(N)=O)c1N)C(C(=O)NCC1CCCO1)c1ccc(N(C)C)cc1 (configuration not stated)	-12%	-12%
COc1ccc(OC)c(NC(=O)CN(C)S(=O)(=O)c2ccc3[nH]c4c(c3c2)CCCC4)c1	-4%	-14%
Cc1cc(C)nc(NS(=O)(=O)c2ccc(NC(=O)c3cc(-c4ccccc4)nc4ccccc34)cc2)n1	-24%	?
Cn1cc(/C=C2\SC(=O)N(c3ccccc3)C2=O)c2ccccc21	3%	-11%
C/C(=N\N1CCN(C2c3ccccc3-c3ccccc32)CC1)c1ccncc1	-11%	.
OC1(c2cccnc2)CCN(Cc2ccc3c(c2)CN(Cc2ccc(F)c(F)c2)CCO3)CC1	-11%	-12%
COc1ccc(C(=O)NCC(=O)N2CCc3ccccc3C2)cc1	2%	3%
C#Cc1cccc(-n2nnc(C(=O)OC)c2-c2ccccc2)c1	-15%	-9%
COC(=O)CC(=O)O[C@H]1C=C[C@@H](NC(=O)OC(C)(C)C)C1	2%	-13%
CCOc1ccc(C(=S)NC2CCCCC2)cc1	-13%	-24%
Nc1nnc(-c2ccc(Cl)c([N+](=O)[O-])c2)s1	-16%	-1%
CC(NCC(O)COCc1ccc(Cl)cc1)c1ccccc1 (configuration not stated)	-15%	i
CCN1CCN(C(=O)c2ccc3c(c2)N(Cc2ccccc2)C(=O)c2ccccc2S3=O)CC1 (configuration not stated)	-12%&-7%	0%
O=C(CSc1nnc(-c2ccccc2)c(-c2ccccc2)n1)NCC1CCCO1 (configuration not stated)	-3%	i
CCCCCCc1c(O)nc(SCCN(C)C)[nH]c1=O	-14%	i
COc1cc(/C=C\C(=O)NCc2ccc3[nH]c(C)cc3c2)cc(OC)c1OC	-15%	?
Cc1ccc(S(=O)(=O)NN=C2C3CC4CC(C3)CC2C4)cc1	-6%	i
CCOc1cccc(C2NC(=S)NC(C)=C2C(=O)Nc2ccccc2)c1 (configuration not stated)	-11%	-10%
SMILES	VACV Venus inh	VACV mCherry inh
Cc1ccc(S(=O)(=O)N2CC(C(=O)O)=CC[C@H]2c2ccc(Cl)cc2)cc1	-9%	i
COc1ccc(OC(=O)N(C)C[C@H]2OCc3cn(nn3)CCCC(=O)N([C@H](C)CO)C[C@@H]2C)cc1	-11%	i
COc1cc(/C=N/NC(=O)c2ccc(CSc3nc4ccccc4[nH]3)cc2)cc(OC)c1OC	-18%	-1%
CCc1ccc2oc(C(=O)N3CCN(c4ccccc4OC)CC3)cc(=O)c2c1	-28%	-10%
S=C(NCC1COc2ccccc2O1)Nc1ccccc1 (configuration not stated)	-12%	i
O=C(Nc1ccc(F)cc1)c1ccccc1S(=O)(=O)c1ccccc1[N+](=O)[O-]	-16%	i
O=C(COC(=O)CCN1C(=O)c2ccccc2C1=O)Nc1ccc(S(=O)(=O)N2CCCC2)cc1	-7%	-12%
Nc1ccn(-c2ccc(Cl)cc2)c(=O)c1	-2%	.
COc1cc2c(c(OC)c1OC)-c1c(cc(OC)c(OC)c1OC)C[C@](C)(O)[C@@H](C)C2	3%	i
Cc1ccc(N(C)C(=O)CCNC(=O)Cn2cnc3ccccc3c2=O)cc1C	-1%	-8%
CCOC(=O)CSc1nc2ccsc2c(=O)[nH]1	-2%	-3%
O=C(NCc1ccco1)c1ccc2nc([C@@H]3O[C@H](CO)[C@H](O)[C@H](O)[C@H]3O)[nH]c2c1	-6%	10%
O=C(CSc1nnc2ccccn12)Nc1cccc(S(=O)(=O)N2CCOCC2)c1	-8%	-1%
COC(=O)C1=C(c2ccc(C(C)=O)cc2)C[C@@H]2CC[C@H]1N2C(=O)N1CCOCC1	-7%	-12%
COc1ccc(-c2cc(C(=O)Nc3c(C(=O)c4ccc(C)c(F)c4)oc4ccccc34)no2)cc1	10%	-1%
Cc1cc(NC(=O)CCC(=O)N(Cc2ccco2)C2(C(=O)NC3CCCCC3)CCCC(C)C2)no1 (configuration not stated)	-16%	-16%
CCOC(=O)C1=CNS(=O)(=O)NC1c1ccc(OC(C)=O)cc1 (configuration not stated)	-3%	?
O=C1NCC(O)=C1C=NCCCO	-2%	-3%
C[C@H]1CN([C@@H](C)CO)C(=O)Cc2cc(NC(=O)CCC(F)(F)F)ccc2O[C@H]1CN(C)C(=O)Nc1ccc(F)cc1	6%	-10%
Cc1[nH]c2ccc(C(=O)N3CCN(Cc4ccccc4)CC3)cc2c1C	-19%	i
COc1ccc(C2/C=C\CN(C(=O)OCc3ccccc3)CC(=O)N2Cc2ccc(F)cc2)cc1 (configuration not stated)	-15%	-18%
Cn1cc(/C=C/c2ccc3ccccc3n2)c2ccccc21	21%	-22%
COc1ccc(S(=O)(=O)n2cnc3cc(C)c(C)cc32)cc1	-12%	-17%
CSc1nc(S(C)(=O)=O)nc2[nH]c(=O)[nH]c12	-9%	-12%
CCOc1ccc(NS(=O)(=O)c2ccc(C(=O)NCCCN3CCCC3=O)cc2)cc1	-18%	-1%
COc1ccccc1N1CCN(C(=O)c2ccc(Cl)c(S(=O)(=O)N3CCOCC3)c2)CC1	-14%	i
Cc1ccc(C)c(OCCC(=O)OCC(=O)NC(=O)NC2CCCCC2)c1	-10%	i
CC(C)CC(=O)NC(=S)Nc1ccc(N2CCCC2)c(Cl)c1	-5%	-5%
CCCCOP(=O)(OCCCC)C(O)c1ccc(N(C)C)cc1 (configuration not stated)	-14%	-3%
COc1ccc(CCNC(=O)Cn2cc(C(=O)c3ccc(Cl)cc3)c(=O)c3ccc(C)nc32)cc1OC	-2%	-13%
